From PubChem BioAssay
CtBP-E1A blk = qHTS Assay for Inhibitors of the CtBP/E1A Interaction; CtBP / adenovirus E1A interaction (AlphaScreen); AlphaScreen GST-E1A/His-CtBP binding, 1536-well; hits give low values; control for the full effect not named in the record; activity change, % (test concentration not listed); actives 0.49% (n = 340,000); AID 651724, 2012; in the data active means activity change below about -65%; inconclusive means about -30% to -65%; inactive means above about -30%; note: % is set by controls: 0 for no effect and ±100 for the full control effect; compound concentration not given in the record
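In 5 uL wells, 23 nL compound meets equimolar GST-E1A and His-CtBP (5X stock 125 nM each) for 2 h, 37 °C. Beads (5X, 50 ug/mL) then 1 h, 37 °C, dark.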
PINK1 modulator = A Quantitative High throughput Screen to Identify Chemical Modulators of PINK1 Expression | PINK1 immunofluorescence, high-content cytometry, 24 h | Potency, µM (highest dose often 76.6 µM), for the others: at the highest dose activation (PINK1 increase), actives largely listed as activators | actives 0.2% (n = 410,000) | AID 624263, 2012; active = well fitted activation curve with a large enough effect; inconclusive = small, poorly fitted or top-dose-only effect; inactive = flat fitted curve, though single readings scatter; cell line not stated here;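 note: potency is the fitted concentration of half-maximal effect; % of control where 0% means no effect; nearly all actives have a fitted effect of over 65% in size; a mitochondrial uncoupler was the plate control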
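Fluorescence from anti-PINK1 antibody, together with nuclear and cell stains, was scanned on a laser-scanning cytometer. Before staining, stable-line cells were incubated 24 hours with compounds at 5 concentrations; primary antibody 12 h at 10 degrees C.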
Six1-Eya2 inh = qHTS Assay for Inhibitors of the Six1/Eya2 Interaction. actives 0.56% (n = 360,000). Homeobox protein SIX1 (Homo sapiens) + Protein phosphatase EYA2 (Homo sapiens), …. activity change, % (test concentration not listed). AlphaScreen GST-Six1/His-Eya2 binding, biochemical; hits give low values; control for the full effect not named in the record; in the data active = activity change below about -65%; inconclusive = about -30% to -65%; inactive = above about -30%; note: % is set by controls: 0 for no effect and ±100 for the full control effect; compound concentration not given in the record
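GST-Six1 + His-Eya2 (5X stock: 250/500 nM); Tris pH 8.0, 300 mM NaCl, 0.05% BSA, 0.02% Tween 20; GSH donor/Ni acceptor beads; 1 h 37 °C dark; AlphaScreen readout.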
TRPV1 PAM = HTS Assay for Compounds that Act as Potentiators of the Vanilloid Receptor 1; TRPV1-expressing cells, Fluo-8 calcium influx, capsaicin EC20 potentiation; host cell line not named in the record; control for the full effect not named in the record; AID 540277, 2011; Transient receptor potential cation channel subfamily V member 1 (Homo sapiens), Q8NER1; potentiation, % at 8.33 µM; actives 0.02% (n = 320,000); active means potentiation above 80%; inconclusive means 30% to 80%; inactive means below 30%; note: 0% is about no effect
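Fluo-8 calcium influx in TRPV1-expressing cells, kinetic read (ex 480/em 520 nm). Compound added and read 3 min for agonist activity, followed by capsaicin at EC20 final and 2 min further read for enhancement.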
D2 PAM = Beta-Arrestin HTS for Positive Allosteric Modulators of the Human D2 Dopamine Receptor: Potentiators; D(2) dopamine receptor (Homo sapiens), P14416; DiscoveRx D2 beta-arrestin cells, luminescence, 90 min; 100% = 57 uM dopamine signal; potentiation, % (concentration not given with the values); actives 0.23% (n = 360,000); AID 624464, 2012; active = potentiation of 50% or more; inconclusive = 30% to 50%; inactive = 30% or less;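 note: compound concentration not given in the record; tested on top of an EC20 dose of dopamine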
Target sequence (P14416 whole entry, looked up): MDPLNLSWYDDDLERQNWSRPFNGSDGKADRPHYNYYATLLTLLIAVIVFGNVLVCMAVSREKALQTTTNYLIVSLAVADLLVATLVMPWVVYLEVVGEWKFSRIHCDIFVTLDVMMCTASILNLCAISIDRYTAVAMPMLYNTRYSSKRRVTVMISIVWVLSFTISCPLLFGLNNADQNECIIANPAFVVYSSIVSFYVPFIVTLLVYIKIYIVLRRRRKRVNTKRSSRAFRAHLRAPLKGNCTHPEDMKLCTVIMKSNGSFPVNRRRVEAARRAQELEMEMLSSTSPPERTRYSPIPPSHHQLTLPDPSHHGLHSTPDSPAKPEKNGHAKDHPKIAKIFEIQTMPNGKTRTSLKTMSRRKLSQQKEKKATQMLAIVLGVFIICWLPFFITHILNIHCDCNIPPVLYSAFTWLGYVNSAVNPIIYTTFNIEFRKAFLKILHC
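D2 cells co-treated with compound plus 50 nM dopamine (EC20) for 90 min at 37 deg C to detect potentiation. Beta-arrestin recruitment was read as enzyme-fragment luminescence after 1 h at ambient temperature. Full response was set by 57 uM dopamine.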
D2 agonist = Beta-Arrestin HTS for Positive Allosteric Modulators of the Human D2 Dopamine Receptor: Agonists | D(2) dopamine receptor (Homo sapiens), P14416 | DiscoveRx PathHunter D2 beta-arrestin, luminescence, 90 min; 100% = 57 uM dopamine signal | activation, % (no concentration beside the values) | actives 0.084% (n = 360,000) | AID 624465, 2012; in the data active = activation above about 40%; inconclusive = about 15% to 40%; inactive = below about 15%; note: compound concentration not given in the record; the text of the record calls up to 30% inactive
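Agonist mode: compounds alone added to overnight-plated D2 PathHunter cells for 90 min at 37 C, with 57 uM final dopamine (EC100) defining full response. Beta-arrestin recruitment detected by chemiluminescent reagent, read after 1 h at ambient temperature.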
Sfp inh = qHTS Assay for Inhibitors of Bacillus subtilis Sfp phosphopantetheinyl transferase (PPTase); Potency, µM, for the others: max response, negative = inhibition, hits mostly inhibitors; Biochemical Sfp PPTase activity, qHTS; actives 3.5% (n = 310,000); active = well fitted inhibition curve with a large enough effect; inconclusive = small, poorly fitted or top-dose-only effect, or another doubt; inactive = no such curve, though single readings can be large or run the other way;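 note: the enzyme is Sfp with the accession as filed and its product quenches rhodamine fluorescence; potency is the fitted concentration of half-maximal effect; 0% = enzyme reaction without inhibitor and -100% = no enzyme wells; top concentration of the series not given in the record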
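With Hepes-Na pH 7.6 buffer containing 10 mM MgCl2, Sfp (15 nM) modified BHQ-2-YbbR (12.5 uM) using rhodamine-CoA (5 uM). Two reads 30 minutes apart at 525/598 nm yielded each well's rate.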
* marks the source's active call; other numbers are inactive results; ? = inconclusive; · = no result given; & = joins results of further samples; [ ] = dose if it differs, or a comment.

SMILES	CtBP-E1A blk	PINK1 modulator	Six1-Eya2 inh	TRPV1 PAM	D2 PAM	D2 agonist	Sfp inh
Cc1ccc2c(c1)C(=O)c1c(C(=O)O)cccc1-2	·	1.1%	-1	-1	9	3.7	27%
Cn1c(SCC(=O)NC2CCCCC2)nnc1C(F)(F)F	2	-1.3%	6	·	-5	-2.0	·
CCCCN(C(=O)c1ccccc1OCc1ccc(F)cc1)c1c(N)n(CC(C)C)c(=O)[nH]c1=O	-17	-1.6%	13	2	-6	-3.2	-3%
COc1ccc(OCCOC(=O)Nc2ccccc2)cc1	4	1.3%	2	-22	1	-2.5	3%
Cc1cc(C)c[n+](-c2nc3ccccc3nc2C(=C=[N-])C#N)c1	4&-10	1.9%&1.9%	-5&-9	6&21	-2&-1	-2.1&-4.4	13%&20%
Cn1nc(C(=O)NNc2c(F)c(F)cc(F)c2F)c2ccccc2c1=O	1	2.5%	1	7	-4	-0.3	11%
CCc1ccc(N(CC)C(=O)c2cn(C)c(=O)c3ccccc23)cc1	8	0.3%	7	?	-4	1.2	1%
CCN(CC)CCC(O)(c1ccccc1)C1CCCCC1 (centres undefined)	-1	2.3%	2	-1	-3	-4.7	11%
COc1ccccc1NC(=O)CN(c1ccccc1C)S(C)(=O)=O	-1	-0.5%	2	-4	-5	4.6	10%
Cc1cccc(NC(=O)c2oc3c(c2C)C(=O)CC(C)(C)C3)n1	-6	?	-9	-8	15	-1.8	17%

Arranged by SMILES length (rising): part of the list above.
SMILES	CtBP-E1A blk	PINK1 modulator	Six1-Eya2 inh	TRPV1 PAM	D2 PAM	D2 agonist	Sfp inh
COc1ccc(OCCOC(=O)Nc2ccccc2)cc1	4	1.3%	2	-22	1	-2.5	3%
Cc1ccc2c(c1)C(=O)c1c(C(=O)O)cccc1-2	·	1.1%	-1	-1	9	3.7	27%
CCc1ccc(N(CC)C(=O)c2cn(C)c(=O)c3ccccc23)cc1	8	0.3%	7	?	-4	1.2	1%

Additional compounds follow:
SMILES	CtBP-E1A blk	PINK1 modulator	Six1-Eya2 inh	TRPV1 PAM	D2 PAM	D2 agonist	Sfp inh
Cc1cc(F)ccc1C(O)c1ncc(-c2cccc3ccccc23)[nH]1 (centres undefined)	-13	1.7%	-16	·	-4	-3.5	·
COCCN=c1scc(-c2cc(OC)ccc2OC)n1/N=C/c1c[nH]c2ccccc12	?	-1.7%	?	4	-30	-3.6	7%
O=C(CSc1nc2ccccc2c(=O)n1CCC(=O)N1CCN(c2ccccc2)CC1)NCC1CCCO1 (centres undefined)	-10	-0.5%	0	1	1	-2.5	0%
Cc1ccn2c(c1)nc(=O)c1cc(S(=O)(=O)N3CCC(C)CC3)ccc12	-9	3.4%	-5	5	-1	-4.7	9%
CCN(CC(=O)Nc1ccc2c(c1)OCCO2)C(=O)CCc1ccc(OC)cc1	4	-0.2%	-2	-29	-15	2.6	·
O=C(c1ccc(Oc2ccccc2)cc1)C1CCCN(C(=O)c2cnccn2)C1 (centres undefined)	6	2.3%	-7	0	1	-0.1	0%
COc1ccc(NC2=NC3(CCCCC3)N=C(N)N2)cc1	-3	1.2%	-13	0	-27	-1.6	-9%
CC(Sc1nc(C2CC2)n(-c2ccccc2)n1)C(=O)c1c(N)n(C)c(=O)n(C)c1=O (centres undefined)	3	-0.6%	-2	-12	12	0.5	18%
Fc1ccccc1CN1CCCN(C(=S)Nc2cccc(Cl)c2)C1	0	1.8%	2	-7	-8	-0.6	-1%
CCOc1ccc(Cl)cc1S(=O)(=O)NCc1cccnc1	0	3.5%	8	?	2	-0.6	18%
CCOC(=O)c1sc(C)c2c1NC(C)(c1cccc3ccccc13)NC2=O (centres undefined)	-7	1.8%	-4	-11	8	-1.6	0%
COc1cccc(-c2noc(CCC(=O)N3CCN(c4cc(C)ccc4C)CC3)n2)c1	-2	1.3%	-3	·	-1	-2.3	·
O=C(O)/C=C/C(=O)Nc1ccc(S(=O)(=O)Nc2nccs2)cc1	-1	1.2%	2	0	-10	-2.5	6%&10%
Cn1c(=N)n(CC(=O)c2cccs2)c2ccccc21	-13	·	-3	3	-13	-0.3	-11%
CNC(=S)N/N=C(\C)c1ccc(N2CCOCC2)cc1	-25	0.4%	-4	-6	-6	-2.7	50µM*
COc1cc(NC(=O)NNC(=O)c2cc3occc3n2C)cc(OC)c1OC	-2	0.2%	-1	28	-4	-0.8	14%
CCCN(CCC)CCCNC(=O)c1cc2c(=O)[nH]c3ccccc3c2s1	-4	2.6%	-5	-11	-3	-0.2	15%
CC1(C)C(c2ccco2)=[N+]([O-])C2(CCCCC2=O)N1O (centres undefined)	5	0.7%	9	13	-6	-2.2	11%
O=C(NCc1ccccn1)c1cc(-c2ccccc2)nc2ccccc12	-2	-2.4%	8	5	3	-5.5	6%
Cc1nn(-c2ccccc2)c2c1/C(=N/O)CC(C)(C)C2	3	0.7%	6	19	-9	-0.5	21%
O=C(Cn1nc(C(F)(F)F)c2c1CCCC2)NCc1ccco1	4	4.1%	-1	11	-12	-2.0	2%
O=C(Nc1ccc(-c2nc3ccccc3s2)cc1)c1cc(-n2cnnc2)ccc1Cl	-3	5.0%[38.3 µM]	-22	-6	4	5.3	0%
CC(=O)c1ccc(NC(=O)CN2CCN(S(=O)(=O)c3ccc4ccccc4c3)CC2)cc1	-5	0.2%	-20	3	1	1.3	·
Cc1cccc(NC(=O)c2sc3nc(N)c(C#N)cc3c2N)c1	?	4.2%	?	-2	-6	-0.8	-12%
O=C(COC(=O)/C=C/c1cccc(Cl)c1)NCc1cccs1	·	8.8%	4	·	-1	-1.5	·
COc1ccc(-n2c(=S)[nH]c3cc(C(=O)NCCCN4CCCC4=O)ccc3c2=O)cc1	1	0.4%	1	·	-20	-2.3	-21%
COc1ccc(C(=O)N2CCN(c3ccc(C)cc3)CC2)cc1OC	-10	3.5%	-22	·	-4	-6.6	2%
Cc1ccc(CCNC(=O)CC2Oc3ccc(C)cc3NC2=O)cc1 (centres undefined)	0	1.1%	10	1	-5	-3.2	6%
COc1ccccc1N1CCN(C(=O)C2CCN(S(=O)(=O)c3ccccc3F)CC2)CC1	·	0.2%	0	?	8	2.9	·
COC(=O)C1(C(=O)OC)Sc2ccccc2C1=O	20	1.6%[38.3 µM]	3	14	-9	0.7	26%
CC(C)CC(NS(=O)(=O)c1ccc2c(c1)oc(=O)n2C)C(=O)N1CC=C(c2ccccc2)CC1 (centres undefined)	-1	4.1%	-2	·	3	0.8	-7%
CSCCC(NC(=O)c1ccccc1Cl)C(=O)NNC(=O)c1ccncc1 (centres undefined)	7	-2.6%	3	9	9	0.7	·
COc1ccc(Br)cc1CN(C)CC(=O)Nc1c(Cl)ccc(C)c1Cl	0	-0.4%	-1	10	-6	-4.9	-12%
Cc1c(-c2ccc(OCCN3CCCCC3)cc2)c(=O)oc2ccc3ccccc3c12	1	-0.8%	8	·	6	2.4	·
CC(C)(C)OC(=O)NCCc1onc(-c2ccccc2F)c1C(=O)O	-15	1.4%	4	·	-1	-4.0	·
CCN(C(=O)COC(=O)Cc1cccc2ccccc12)C1CCS(=O)(=O)C1 (centres undefined)	-1	-1.5%	-1	1	-5	9.8	·
CCOC(=O)c1ccc(N=CC2=C(O)CC(C)(C)CC2=O)cc1	-1	4.6%	7	9	12	2.4	12%
Cc1cc(C)n(CC(=O)N/N=C/c2ccc(C)o2)n1	4	·	0	1	-27	-0.6	11%
COc1ccc(C(=O)NC2(C(F)(F)F)C(=O)N(Cc3ccco3)C3=C2C(=O)CC(C)(C)C3)cc1OC (centres undefined)	-9	-2.0%	0	-1	0	-2.7	23%
Nc1ncnc2nc(SCc3ccc(Cl)cc3Cl)[nH]c12	0	3.1%	-8	7	10	0.7	18%
Cc1ccc(-n2c(Cc3cccn3C)nnc2SCC(=O)NCc2ccco2)cc1	-13	-4.9%[38.3 µM]	-12	-22	8	-3.1	6.3µM*
Cc1ccc(-n2c(C)cn(C(=O)c3ccccc3)c2=S)cc1	-1	-3.6%[38.3 µM]	5	-7	1	1.5	16%
Cc1cc(NC(=O)c2ccc3c(c2)C(=O)N(CC(C)C)C3=O)no1	5	-0.8%	2	-9	-4	-3.4	11%
COCCCn1c(C(=O)NCCN2CCOCC2)cc2c(=O)n3cccc(C)c3nc21	5	0.4%	-3	-8	-4	-2.5	5%
O=C(NCc1cccs1)C1CCCN1C(=O)NC1CCCCC1 (centres undefined)	4	-3.2%	8	23	-4	-1.6	15%
COc1ccc(N2CCN(C(=O)COC(=O)CCc3ccccc3OC)CC2)cc1	-13	-1.9%	-18	-12	29	-0.5	·
CCOC(=O)c1c(S(=O)(=O)NCc2ccc(OC)cc2)c(C)n(C)c1C	1	2.2%	2	-5	-3	1.9	25%
COc1ccc(N2CCN(C(=O)CN3C(=O)NC(c4ccc(OC)cc4)(c4ccc(OC)cc4)C3=O)CC2)cc1	-28	0.4%	-26	4	-1	-1.7	1%
COCc1cc(=O)n2[nH]c(-c3ccccc3)cc2n1	-3	2.1%	8	14	-16	-2.1	-18%
COc1ccc2c(c1)OC[C@H]1[C@H]2N2C(=O)c3ccc(C)cc3NC(=O)[C@@]2(C)[C@H]1c1ccccc1	-3	4.5%	-14	·	-5	-6.6	·

(cont.)
SMILES	CtBP-E1A blk	PINK1 modulator	Six1-Eya2 inh	TRPV1 PAM	D2 PAM	D2 agonist	Sfp inh
O=c1[nH]cc(C(F)(F)F)cc1NS(=O)(=O)c1ccccc1[N+](=O)[O-]	12	1.1%	-2	13	-11	-2.4	2%
O=C(Nc1ccccc1NC(=O)c1ccco1)c1ccco1	3	·	1	2	-6	-2.0	11%
COc1ccc(C(=O)CCC(=O)NCCc2c[nH]c3ccccc23)cc1OC	-3	3.8%	-5	7	2	8.0	22%
CN(Cc1cccc(Cl)c1)C(=O)C1CSC2(C)CCC(=O)N12 (centres undefined)	-3	1.9%	1	-2	-4	-2.6	9%
